# Calb biofilm kill – clotrimazole potentiators killing C. albicans biofilm, primary screen, 4-compound mixtures; C. albicans biofilm persisters + clotrimazole, fluorescence viability; primary screen in compound mixtures of four per well; inhibition, % at 7.6 µM; actives 0.02% (n = 120,000);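 active = inhibition above 30.3% in the primary screen of four-compound pools, then above 30% when the compound was retested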;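 note: compounds exposed to preformed 24 h biofilms for 48 h; the number belongs to the whole pool; some results filed as inactive read as strong as hits; inactives centre near 12; 0% = biofilm with clotrimazole alone and 100% = kill control; retested singly at about 60 µM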
#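 System: C. albicans CAF4-2 wild-type biofilms; Medium: RPMI/MOPS medium, pH 7.0; Reagent: Clotrimazole, 50 µg/mL; Times: biofilm formation 24 h, compound exposure 48 h, 37 °C; Detection: 2-h Alamar Blue fluorescence, 535/590 nm excitation/emission; Evaluation: percent inhibition of biofilm viability.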
# An asterisk follows results filed as active. The list is partial (hit frequency here may not be typical).
SMILES,Calb biofilm kill
COc1ccc(C(=O)N/N=C/C2CC=CCC2)cc1OC (centres undefined),-1
OCCn1c(-c2ccc(F)cc2)csc1=Nc1ccccc1,11
CCc1cccc(C)c1NC(=S)NCc1ccccc1,14
Oc1ccc(N=Nc2ccc(Br)cc2)c(O)c1,9
O=C(O)c1cn(CCOc2ccccc2Cl)c2ccccc12,2
C[C@H](NC(=O)c1nc[nH]c1C(=O)N1CCN(c2ccccc2)CC1)C(=O)OC(C)(C)C,7
O=C(O)c1ccc(/C=N/NC(=S)NCCN2CCOCC2)cc1,9
COc1cc(OC)c(OC)cc1CN1CCCC(C(=O)c2ccccc2SC)C1 (centres undefined),11
CCOc1cc(/C=N/NC(=O)c2cccs2)cc([N+](=O)[O-])c1O,28
CC(C)(C)c1ccc(NC(=O)Nc2ccc(F)cc2)cc1,24
CC(c1ccco1)N(C(=O)c1ccccc1NS(=O)(=O)c1cc([N+](=O)[O-])ccc1Cl)c1ccccn1 (centres undefined),9
CCCCc1nn2c(N)c(/C=C3\C=Nc4ccccc43)c(=O)nc2s1,6
OCC1(Cc2ccccc2)CCN(Cc2ccc(-c3ccco3)cc2)CC1,18
COc1cc(OC)c(NC(=S)NCc2ccc(F)cc2)cc1Cl,5
O=C(NC(=S)N1CCN(c2ccc([N+](=O)[O-])cc2)CC1)c1ccccc1F,5
CC(C)OCCCn1c(NN)nc2ccccc2c1=O,11
Cc1cc(C)c2nc(Cl)c(C3NC(=O)c4ccccc4N3)cc2c1 (centres undefined),10
O=S1(=O)N=C(N(CCO)/N=C/c2ccncc2)c2ccccc21,11
Cc1ccc(C(=O)NS(=O)(=O)c2ccccc2)cc1,15
C=CCN(CC=C)C(=O)c1c(OC)cccc1OC,8
O=[N+]([O-])c1cnn(-c2nc(-c3ccccc3)cc(C(F)(F)F)n2)c1,-6
Cc1nnc(SCC(=O)N2CCc3ccccc3C2)n1-c1ccccc1,14
O=C(N/N=C/c1ccccc1[N+](=O)[O-])c1cnccn1,13
Cc1cccc(Nc2nc(N)c([N+](=O)[O-])c(N3CC(C)CC(C)C3)n2)c1 (centres undefined),8
CCOC(=O)C1=C(O)/C(=C\c2cccs2)N=C1C,18
Cc1cc(C)n2nc(SCCC(=O)NCc3ccccc3)nc2n1,13
Cc1ccccc1NC(=O)c1ccc2snnc2c1,11
CCN(Cc1ccccc1)S(=O)(=O)c1cc(C(=O)NCC2CCCCC2)ccc1OC,15
CC1(C)Cc2nc3sc4c(=O)n(Cc5ccccc5)cnc4c3cc2CS1,11
Cn1cc(CNCc2cn(C)nc2-c2ccc(C3CCCCC3)cc2)cn1,4
Cc1cc(C)n2nc(C(=O)NC(c3ccccc3)c3ccccc3)nc2n1,7
C/C(CC(=O)Nc1cc(C)ccn1)=N\NC(=O)C(=O)NC(C)C,-7
N#CC1=C2N=C(N)c3ccccc3N2C2=C(C(=O)CCC2)C1c1ccccc1F (centres undefined),28
CCN(CC)CCNC(=O)Cc1nn(Cc2ccccc2)c(=O)c2ccccc12,10
O=C1CNC(=O)/C1=C/c1ccccc1,8
CS(=O)(=O)Nc1cccc(C2=NN(S(=O)(=O)c3ccc(F)cc3)C(c3cccs3)C2)c1 (centres undefined),3
CCOC(=O)C1=C(O)/C(=C/c2ccccn2)SC1=Nc1ccc(Cl)cc1,15
Cn1ncc([N+](=O)[O-])c1C(=O)Nc1ccc(C2CCCCC2)cc1,14
COc1ccc(CN(C)CC(=O)Nc2sc3c(c2C#N)CCC3)c(OC)c1,7
Cc1ccc(C(=O)COC(=O)CNC(=O)CNC(=O)c2ccc(C)cc2)cc1,17
CC(C)(C)N(Cc1cc2ccccc2[nH]c1=O)C(=O)c1ccco1,12
Cc1ccc(-n2c(N)c(C(=O)Nc3ccccc3F)sc2=S)cc1C,20
O=C1OCCC1Sc1nnc(-c2ccc3c(c2)OCO3)o1 (centres undefined),9
COc1ccc(C(CC(=O)O)NC(=O)c2ccccc2[N+](=O)[O-])cc1 (centres undefined),12
CCN1CCN(c2cc(C(C)C)nc3c(-c4ccccc4)c(C)nn23)CC1,-2
CN1CCN(CCCNC(=O)c2ccc(/C=C3/Sc4ccccc4N(Cc4cccc(Cl)c4)C3=O)cc2)CC1,5
O=C(CCCNS(=O)(=O)c1ccc(Cl)c(Cl)c1)NCCc1ccccn1,9
CCOc1ccc(C2C([N+](=O)[O-])=C(C)N(C)C(=O)N2C)cc1OC (centres undefined),-7

# 2 entries drawn at random from the list so far:
SMILES,Calb biofilm kill
Cc1ccc(-n2c(N)c(C(=O)Nc3ccccc3F)sc2=S)cc1C,20
Cc1ccc(C(=O)COC(=O)CNC(=O)CNC(=O)c2ccc(C)cc2)cc1,17

# (more compounds)
SMILES,Calb biofilm kill
CC(C)OC(=O)CSc1nnc(CNc2cccc(Cl)c2)n1C,15
COc1ccc(NS(=O)(=O)c2ccc(O)c(C(=O)OCC(=O)Nc3ccc4c(c3)OCCO4)c2)cc1,6
N/C(=N\OC(=O)c1ccc(Cl)c([N+](=O)[O-])c1)c1ccccn1,6
Cc1cccc(Nc2nnc(SCC3CCCCO3)s2)c1 (centres undefined),15
Cc1ccc(C)c(N2CCN(C(=O)CCc3nc4ccccc4[nH]3)CC2)c1,14
CSc1nnc2c(n1)OC1(Nc3ccccc3-2)C(=O)Nc2ccccc21 (centres undefined),-3
O=C(Nc1ccc(Oc2ncnc3cc(Cl)ccc23)nc1)c1cccs1,14
CC(C)(C)C(=O)Cn1ncc(Br)c(Br)c1=O,10
CC(C)=CCN1CCN(Cc2ccc(C#CC(C)(C)O)cc2)CC1CCO (centres undefined),1
O=C(CSc1nnnn1-c1ccccc1F)NNC(=O)c1ccco1,31
Nc1nnn(CC(=O)N/N=C/c2ccccc2)n1,20
Cc1cc(SCC(=O)c2ccc(O)c(O)c2)n2nc(C)c(-c3ccccc3)c2n1,28
CCOC(=O)C1CCN(C(=O)COc2ccc(S(=O)(=O)N3CCCC3)cc2C)CC1,13
COc1ccccc1N1CCN(C(=O)CN2C(=O)C3CCCCC3C2=O)CC1 (centres undefined),13
O=S(Cc1ccc(Br)cc1)Cc1nnc(SCc2c(F)cccc2Cl)n1-c1ccccc1 (centres undefined),8
O=C(NCc1ccc(Cl)cc1)C(=O)NCC1OCCN1C(=O)c1cccs1 (centres undefined),0
NC(=O)C1CCN(C(=S)NCCc2ccccc2)CC1,1
FC(F)(F)c1cccc(CNC(=S)Nc2ccccc2)c1,4
CN(C)c1nnnn1-c1ccccc1Oc1ncc(C(F)(F)F)cc1Cl,-6
O=C(CSc1nnc(Cc2ccccc2)n1-c1cccc(Cl)c1)NNC(=O)Cc1ccccc1,16
COc1ccc(-c2csc(N3CCC(c4ccccc4)CC3)n2)cc1,12
CCOc1cccc(C(=O)NC(=S)Nc2ccccc2)c1,13
CC(C)NC(=O)c1ccc(S(=O)(=O)N(C)C)cc1,18
CCc1cccc(C)c1NC(=O)c1ccc(CN2CCc3ccccc3C2)cc1,10
CN(C(=O)CO/N=C/c1ccc(Cl)cc1)c1ccccc1,4
CN1CCN(NC(=O)CN(C)S(=O)(=O)c2cc(Cl)ccc2Cl)CC1,16
Cc1ccc(NS(=O)(=O)c2cc3c4c(cccc4c2)C(=O)NC3=O)cc1C,31
O=C(Cn1c(=O)oc2ccccc21)N1CCOCC1,7
CC(C)(C)NC(=O)CSC(=Nc1ccccc1F)NC#N,11
CC1CCCN(CC(O)COCc2ccccc2)C1 (centres undefined),8
CCOC(=O)C1(CCCc2ccccc2)CCN(C(=O)c2cnn(CC)c2)CC1,10
CCc1ccc(/C=C2/SC(N3CCOCC3)=NC2=O)cc1,12
O=C(NNC(=S)NC1CC2C=CC1C2)c1cccnc1 (centres undefined),13
FC(F)(F)c1cc(Cl)c2nnc(-c3cccnc3)n2c1,13
O=C1c2ccccc2-c2c1cccc2C(=O)N1CCOCC1,12
CCN(CC)c1ccc(NC(=O)CCCOc2cccc(C)c2)cc1,5
COCc1nc2sc(C)c(C)c2c(=O)[nH]1,8
O=C(NCc1ccccc1)C(=O)NCC1OCCN1S(=O)(=O)c1cccs1 (centres undefined),18
N#CC1=C(N)Oc2cc(O)c(C=Nc3ccccc3)cc2C1c1ccccc1 (centres undefined),9
O=C(Nc1cc(Sc2ccccn2)cc([N+](=O)[O-])c1)c1cccc(Cl)c1,16
Cc1cc(NC(=O)Cn2cc([N+](=O)[O-])cn2)n(Cc2ccc(F)cc2)n1,34
NC(=O)c1c(NC(=O)C2CCCO2)sc2c1CCCCC2 (centres undefined),5
CC(=O)NC(CC(=O)O)c1ccccc1 (centres undefined),23
CCOc1ncccc1C(=O)Nc1ccc(F)c(F)c1,13
CC(C)OP(=O)(c1ccc(N(C)C)cc1)C(Nc1ccccc1)c1cccnc1 (centres undefined),3
CCCC(Oc1ccc(Br)cc1)c1nc2c3cc(OC)c(OC)cc3nc(=S)n2[nH]1 (centres undefined),11
Cc1ccc(-c2nc(N3CCOCC3)sc2C(=O)N2CCOCC2)cc1,10
Cc1nc(-c2cc(C#N)c(Sc3cccc(C(F)(F)F)c3)nc2C)cs1,14
O=[N+]([O-])c1cccc(-c2nnc3ccccn23)c1,18
O=C(CC(=O)Nc1nc(C23CC4CC(CC(C4)C2)C3)cs1)NCCO,27
COc1ccc(NC(=S)N(CCCN2CCOCC2)Cc2cn(C)c3ccccc23)cc1OC,7
CCOC(=O)C1CCN(C(=O)Nc2ccc3snnc3c2)CC1,11
COc1ccc(OC)c(/C=C2\SC(=S)N(Cc3cccnc3)C2=O)c1,13
Cc1cc(C)c(C#N)c(SCC(=O)Nc2ccccc2)n1,-3
O=C(NCCO)c1ccc(CSc2nc3ccccc3[nH]2)cc1,12
COC(=O)c1ccc(COc2ccc(-c3nnn(CC(N)=O)n3)cc2)cc1,-3
CCN(NC(=O)C(O)(c1ccc(F)cc1)c1ccc(F)cc1)C(=O)c1ccccc1,12
O=C(Nc1ccccc1)N(C1=NCCC1)c1ccccc1,19
S=C(NCCc1ccccc1)Nc1ccccc1Cl,12
Cc1ccc(NCC(O)C(O)C(O)CO)c(N=Nc2ccccc2)c1C (centres undefined),16

# Quoted from the results shown (16 entries):
SMILES,Calb biofilm kill
COc1ccc(C(=O)N/N=C/C2CC=CCC2)cc1OC (centres undefined),-1
OCCn1c(-c2ccc(F)cc2)csc1=Nc1ccccc1,11
CCc1cccc(C)c1NC(=S)NCc1ccccc1,14
Oc1ccc(N=Nc2ccc(Br)cc2)c(O)c1,9
O=C(O)c1cn(CCOc2ccccc2Cl)c2ccccc12,2
C[C@H](NC(=O)c1nc[nH]c1C(=O)N1CCN(c2ccccc2)CC1)C(=O)OC(C)(C)C,7
O=C(O)c1ccc(/C=N/NC(=S)NCCN2CCOCC2)cc1,9
COc1cc(OC)c(OC)cc1CN1CCCC(C(=O)c2ccccc2SC)C1 (centres undefined),11
CCOc1cc(/C=N/NC(=O)c2cccs2)cc([N+](=O)[O-])c1O,28
CC(C)(C)c1ccc(NC(=O)Nc2ccc(F)cc2)cc1,24
CC(c1ccco1)N(C(=O)c1ccccc1NS(=O)(=O)c1cc([N+](=O)[O-])ccc1Cl)c1ccccn1 (centres undefined),9
CCCCc1nn2c(N)c(/C=C3\C=Nc4ccccc43)c(=O)nc2s1,6
OCC1(Cc2ccccc2)CCN(Cc2ccc(-c3ccco3)cc2)CC1,18
COc1cc(OC)c(NC(=S)NCc2ccc(F)cc2)cc1Cl,5
O=C(NC(=S)N1CCN(c2ccc([N+](=O)[O-])cc2)CC1)c1ccccc1F,5
CC(C)OCCCn1c(NN)nc2ccccc2c1=O,11

# Other entries.
SMILES,Calb biofilm kill
Cc1cc2nc3ccc(=[N+](C)C)cc-3sc2cc1N,0
O=C(CCNS(=O)(=O)c1ccc(Br)s1)NCc1ccc2c(c1)OCO2,-4
CCc1ccc(-n2c(C)cc(/C=N/NC(=O)c3ccncc3)c2C)cc1,7
CCCCNC(=O)/C(C#N)=C/c1ccc(F)cc1F,-3
CCCn1c2c(c(=N)c3c1CCC3)CCC2,21
Cc1ccc2c(N)[nH]nc2n1,18
Cc1cccc(NS(=O)(=O)c2cccc([N+](=O)[O-])c2)n1,21
COc1ccc(-c2c(C(F)(F)F)nn(C)c2NC(C)=O)cc1,16
C=CCNc1nc(Cl)nc(Nc2ccc(OC)cc2OC)n1,6
CC1=CC(C)(C)n2c(O)c(N=NC(N)=S)c3c(C)ccc1c32,20
COc1ccccc1OCc1cc(-c2ccccc2)no1,15
C#CCn1c(=NC(=O)CN2C(=O)CCC2=O)sc2cccc(OC)c21,28
C/C(=N\Nc1nc(N)cc(Cl)n1)c1cccc(N)c1,13
CCOC(=O)c1sc(NC(=O)COC(=O)C(CCSC)NC(C)=O)nc1C (centres undefined),15
CCCn1c(SCC(=O)Nc2ccccc2Cl)n[nH]c1=O,14
COc1ccc(CNC(=O)C2CCC(=O)N2C(C)C)c(OC)c1 (centres undefined),21
Cc1cc(C(=O)CN2C(=O)NC3(CCCC3)C2=O)c(C)n1-c1ccc2c(c1)OCO2,15
CCOC(=O)N1CCN(CC(=O)Nc2ccc(F)cc2)CC1,6
COC(=O)CN(C#N)c1nc(C)cc(C)n1,16
O=C(CSC(=S)N1CCOCC1)Nc1ncc2c(n1)CC(c1ccco1)CC2=O (centres undefined),23
COc1ccc(C)cc1NC(=S)N1CCN(c2ncccn2)CC1,16
c1ccc(COC(CN2CCCCCC2)CN2CCCCCC2)cc1,22
CC(=O)N(CCN1CCOCC1)Cc1cc2cc3c(cc2nc1Cl)OCO3,17
COC(=O)[C@@]1(Cc2ccc(OC)cc2)[C@H]2c3cc(C(=O)N4CCCC4)n(Cc4ccc(C)o4)c3C[C@H]2CN1C(=O)c1ccccc1,-3
NNc1nc(Nc2ccccc2)nc(Nc2ccccc2)n1,6
O=C(NN=C1CCCCCCC1)c1ccc2ccccc2n1,-1
CCC(C)n1ncn(-c2ccc(N3CCN(c4ccc(O)cc4)CC3)cc2)c1=O (centres undefined),6
Cc1cc(C)nc(NNC2=CC(=O)CC(C)(C)C2)n1,-1
FC(F)(F)c1cccc(Cc2noc(CN3CCSCC3)n2)c1,2
Cc1sc2nc(CSCC(=O)Nc3ccc(N4CCOCC4)cc3)[nH]c(=O)c2c1C,13

# Screening results: PubChem BioAssay, PCMD
